Screens: PubChem BioAssay, several laboratories
VCAM-1 down imaging: suppression of endothelial VCAM-1 upregulation – imaging, high-content imaging, pooled HUVEC, TNFa stimulus (AID 456); hit rate 0.2% among 10,000; HUVEC TNFa-induced VCAM-1 surface expression, immunofluorescence imaging; numbers were filed only for top-ranked candidate wells; inhibition, % at 5 µM, or IC50 in µM where a hit was titrated;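 active means top tenth filtered wells with inhibition above zero that passed visual or statistical confirmation; inactive means the rest, including hits rejected on review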;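 further: 0% = stimulated vehicle wells and 100% = unstimulated cells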
FPR binder: human FPR ligand, with FPRL1 counter-screen; P21462; FPR-expressing cells, fluorescent ligand binding, flow cytometry; inhibition, %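 (tested at 6.7 µM)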; hit rate 0.74% among 24,000; AID 440;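 further: 0% = buffer wells and 100% = receptor blocker peptide wells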
Target sequence (P21462 whole entry, looked up): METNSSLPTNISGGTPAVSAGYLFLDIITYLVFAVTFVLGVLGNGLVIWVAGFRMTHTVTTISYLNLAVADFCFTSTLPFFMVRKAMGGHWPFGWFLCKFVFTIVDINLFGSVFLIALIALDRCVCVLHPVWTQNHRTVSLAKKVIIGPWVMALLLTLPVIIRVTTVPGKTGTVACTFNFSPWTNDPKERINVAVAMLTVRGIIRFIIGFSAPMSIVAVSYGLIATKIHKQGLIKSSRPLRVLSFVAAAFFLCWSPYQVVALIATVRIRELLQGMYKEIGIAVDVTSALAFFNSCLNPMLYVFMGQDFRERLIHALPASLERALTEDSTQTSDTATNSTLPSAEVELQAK
VCAM-1 augmentation: boosters of cytokine-driven VCAM-1 levels – imaging, high-content imaging, pooled HUVEC, TNFa stimulus (AID 457); Pooled HUVEC, TNFa-induced VCAM-1 immunofluorescence imaging; hits of this screen are not shown here; calls only; hit rate 0.2% among 10,000;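 active means a top-ranked rise in VCAM-1 staining upheld on image or statistical review; inactive means the rest, including candidates rejected on review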;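 further: compounds tested at 5 µM in the well; cells exposed to compound for 24 hours before fixing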
FPRL1 ligand: binds the human formylpeptide receptor-like-1 FPRL1. P25090. FPRL1-expressing cells, fluorescent ligand binding inhibition, flow cytometry. inhibition, %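 (tested at 6.7 µM)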. hit rate 0.3% among 24,000. AID 441;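 further: 0% = buffer alone and 100% = receptor blocker peptide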
Target sequence (P25090 whole entry, looked up): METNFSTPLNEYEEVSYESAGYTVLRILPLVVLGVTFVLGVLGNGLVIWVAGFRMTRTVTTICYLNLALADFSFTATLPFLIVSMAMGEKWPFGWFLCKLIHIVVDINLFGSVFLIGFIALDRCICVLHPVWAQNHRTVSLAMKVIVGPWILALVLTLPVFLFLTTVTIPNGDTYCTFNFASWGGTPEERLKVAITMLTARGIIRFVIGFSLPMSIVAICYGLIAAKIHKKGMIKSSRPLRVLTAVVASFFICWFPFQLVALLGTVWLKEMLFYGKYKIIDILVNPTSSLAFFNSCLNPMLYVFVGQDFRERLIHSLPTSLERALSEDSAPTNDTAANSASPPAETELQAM
VCAM-1 inhibition: inhibitors of TNFa-induced VCAM-1 surface display, cell-based, plate reader, pooled HUVEC, TNFa stimulus (AID 454); HUVEC TNFa-induced VCAM-1 surface immunofluorescence, plate reader; numbers were filed only for top-ranked candidate wells; inhibition, % at 5 µM; hit rate 0.2% among 10,000;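 active means compound among top-ranked inhibitors of TNF-induced VCAM-1 adhesion protein staining, with the hit upheld by image or statistical review; inactive means the rest, including hits rejected on review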;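 further: 0% = TNFa with vehicle and 100% = cells without TNFa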
* = called active by the depositor; i = inactive; . = no result given.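 How the source made its calls, unless noted: active means mean above 30%; inconclusive means self-fluorescent; inactive means the rest.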

SMILES | VCAM-1 down imaging | FPR binder | VCAM-1 augmentation | FPRL1 ligand | VCAM-1 inhibition
O=C(O)c1ccc2c(c1)N(Cc1cccc(F)c1)C(=O)CS2 | . | 4 | . | -7 | .
Cc1cc(C)cc(-n2c(=O)c3sccc3n(CC(=O)NCc3ccco3)c2=O)c1 | . | -2 | . | 3 | .
OC(CNCC1COc2ccccc2O1)COCc1cccs1 (stereo unspecified) | i | -4 | i | 9 | i
Cc1ccc(O)c(-c2cc(C(=O)Nc3ccc(S(=O)(=O)N4CC(C)OC(C)C4)cc3)[nH]n2)c1 (stereo unspecified) | i | 11 | i | 2 | i
Cc1ccc(N2C(=O)c3ccccc3C2Nc2cccnc2)nc1 (stereo unspecified) | i | -2 | i | -2 | i
O=C(Nc1nnc(/N=C/c2ccco2)s1)c1ccc(F)cc1 | . | 4 | . | 5 | .
Cc1ccc2nc3c(cc(C(=O)NCC4CCCO4)n3C)c(=O)n2c1 (stereo unspecified) | i | 5 | i | 5 | i
Cc1cc2ccccc2c(=O)n1CC(=O)NCC1COc2ccccc2O1 (stereo unspecified) | . | 1 | . | -14 | .
O=C(Cn1nc(-c2ccc(Cl)cc2)ccc1=O)NCCN1CCOCC1 | . | 0 | . | -5 | .
CSc1ccc(C(C(C(=O)c2cccs2)N2CCOCC2)N2CCOCC2)cc1 (stereo unspecified) | . | -2 | . | 0 | .
O=C(NCc1ccco1)C1CC(=O)N(CCc2ccccc2)C1 (stereo unspecified) | . | 4 | . | 2 | .
O=C(NC1CCCc2ccccc21)C1CCCN(S(=O)(=O)c2cnc[nH]2)C1 (stereo unspecified) | . | -5 | . | -3 | .
COc1ccc2[nH]c(=O)c(CN(Cc3cccs3)S(=O)(=O)c3cccc4nsnc34)cc2c1 | i | 9 | i | 7 | i
Cc1ccc(-c2nnn(CC(=O)N(CC3CCCO3)C(C(=O)NC(C)(C)C)c3ccc(F)cc3)n2)o1 (stereo unspecified) | i | 0 | i | -8 | i
O=C(O)CCC(=O)CCC(=O)c1ccccc1 | . | -2 | . | -4 | .
CCOc1ccccc1C(=O)Nc1nnc(CC)s1 | i | -2 | i | 2 | i
Cc1ccc(N2CCN(C(=O)c3ccccc3Br)CC2)c(C)c1 | i | 13 | i | 6 | i
CS(=O)(=O)Nc1cccc(C(=O)CC2(O)C(=O)Nc3ccc(Br)cc32)c1 (stereo unspecified) | . | 14 | . | 0 | .
O=C(NCCCN1CCOCC1)c1ccc(CS(=O)(=O)c2cccc(C(F)(F)F)c2)o1 | . | -1 | . | 0 | .
CC(=O)OCC(=O)[C@@]1(O)CC[C@H]2[C@@H]3CCC4=CC(=O)C=C[C@]4(C)[C@@]3(Cl)[C@@H](Cl)C[C@@]21C | i | -3 | i | -1 | i
Cc1c(C(=O)NCc2ccccc2Cl)oc2c1C(=O)CCC2 | . | 0 | . | -2 | .
C1CNCCNCCNCCN1 | i | -3 | i | 1 | i
CC[C@H]1CN2CCc3cc(OC)c(OC)cc3[C@@H]2C[C@@H]1C[C@H]1NCCc2cc(OC)c(OC)cc21 | i | -2 | i | 2 | 100
O=C(Nc1ccc(N2CCOCC2)c(Cl)c1)c1ccc(Br)o1 | i | 2 | i | 0 | i
COc1ccc(-n2c(N)c(C(=O)NCc3ccco3)c3nc4ccccc4nc32)c(OC)c1 | i | -1 | i | -4 | i
CC1(C)O[C@@H]2C[C@H]3[C@@H]4C[C@H](F)C5=CC(=O)CC[C@]5(C)[C@H]4[C@@H](O)C[C@]3(C)[C@]2(C(=O)CO)O1 | i | -2 | i | 7 | i
CCOC(=O)c1nnn(-c2nonc2N)c1CN(C)Cc1ccccc1 | . | 3 | . | 8 | .
COCCCN1C(=O)C(=O)/C(=C(/O)c2ccc(OC(C)C)cc2)C1c1ccc(O)c(OC)c1 (stereo unspecified) | . | 3 | . | -12 | .
COc1ccccc1N1CCN(CC(O)COc2c(OC)cccc2OC)CC1 (stereo unspecified) | . | 0 | . | -2 | .
CCCc1cc(C(=O)Nc2cccc(Cl)c2)no1 | . | -2 | . | 0 | .

Reprinted at random: two records from the list, in no set order.
SMILES | VCAM-1 down imaging | FPR binder | VCAM-1 augmentation | FPRL1 ligand | VCAM-1 inhibition
O=C(Nc1ccc(N2CCOCC2)c(Cl)c1)c1ccc(Br)o1 | i | 2 | i | 0 | i
O=C(O)c1ccc2c(c1)N(Cc1cccc(F)c1)C(=O)CS2 | . | 4 | . | -7 | .

Next part:
SMILES | VCAM-1 down imaging | FPR binder | VCAM-1 augmentation | FPRL1 ligand | VCAM-1 inhibition
COc1ccccc1-c1cc(C(=O)Nc2c(C)n(C)n(-c3ccccc3)c2=O)no1 | . | -3 | . | -5 | .
COc1ccc(NC(=O)CSc2nnc(Cc3cccn3C)n2CCc2ccccc2)cc1OC | . | 15 | . | 3 | .
COc1ccc(N(C)S(=O)(=O)c2ccc3c(c2)oc(=O)n3C)cc1 | . | -5 | . | -8 | .
CCc1nnc(NC(=O)NCN2C(=O)C3C4C=CC(C4)C3C2=O)s1 (stereo unspecified) | i | 2 | i | -1 | i
CC1=C(C(=O)N2CCc3ccccc32)C2(CCC(C)CC2)OC1=O (stereo unspecified) | . | -26 | . | -25 | .
O=C(CCCn1c(=O)[nH]c2cc(Cl)ccc2c1=O)NCCN1CCN(c2ccccc2)CC1 | . | -1 | . | 0 | .
Cc1ccc2c(Cl)cc(Cl)c(OCc3c(C)noc3C)c2n1 | i | -14 | i | -1 | i
NC(=O)NCC12CC3CC(CC(C3)C1)C2 | . | -2 | . | 0 | .
Oc1c(Cl)cc(Cl)cc1Sc1cc(Cl)cc(Cl)c1O | 70% | 14 | i | -2 | 82
COC(=O)c1sc(S(=O)(=O)N2CCCCC2)c(C(=O)OC)c1C | . | 0 | . | 6 | .
O=C(NCCCN1CCOCC1)c1ccc(CS(=O)(=O)c2ccc(Br)cc2)o1 | . | -5 | . | -3 | .
CCOc1ccc(S(=O)(=O)NCc2csc(C)n2)cc1 | . | 0 | . | 2 | .
COCc1cc(C)nc(N2CCOCC2)c1C#N | . | 1 | . | 0 | .
CCCC(=O)N=C1SC2CS(=O)(=O)CC2N1c1ccc(CC)cc1 (stereo unspecified) | i | 1 | i | -6 | i
Cc1ccc(NC(=O)C2CCCN(S(=O)(=O)c3cccs3)C2)cc1 (stereo unspecified) | . | -5 | . | 11 | .
CCCCN(CC)S(=O)(=O)c1ccc(C(=O)Nc2nnc(-c3cccs3)o2)cc1 | . | -6 | . | 0 | .
COCCNC(=O)C1CCCN(c2ncccn2)C1 (stereo unspecified) | i | -3 | i | -3 | i
O=C(c1cc(-c2cccs2)on1)N1CCc2ccccc2C1 | i | 2 | i | -3 | i
O=C(c1ccco1)N1CCN=C1SCc1cccc(Cl)c1 | . | -2 | . | -3 | .
Cc1cccc(NCc2nc(-c3ccccc3)no2)c1 | . | -13 | . | -7 | .

Sorted by molecular weight (descending): 4 of the compounds above
SMILES | VCAM-1 down imaging | FPR binder | VCAM-1 augmentation | FPRL1 ligand | VCAM-1 inhibition
CCCCN(CC)S(=O)(=O)c1ccc(C(=O)Nc2nnc(-c3cccs3)o2)cc1 | . | -6 | . | 0 | .
O=C(c1ccco1)N1CCN=C1SCc1cccc(Cl)c1 | . | -2 | . | -3 | .
O=C(c1cc(-c2cccs2)on1)N1CCc2ccccc2C1 | i | 2 | i | -3 | i
Cc1cccc(NCc2nc(-c3ccccc3)no2)c1 | . | -13 | . | -7 | .

Next part
SMILES | VCAM-1 down imaging | FPR binder | VCAM-1 augmentation | FPRL1 ligand | VCAM-1 inhibition
Cn1cccc1Cc1nnc(SCC(=O)Nc2ccc(Cl)cc2)n1-c1ccc(F)cc1 | . | 24 | . | 4 | .
CCC1CCCCN1CCCNC(=O)C1CCC(=O)N1Cc1ccc(C)cc1 (stereo unspecified) | . | -1 | . | 2 | .
COCCCNc1nc2c(c(=O)[nH]c(=O)n2C)n1CC(O)COc1ccccc1C (stereo unspecified) | . | -1 | . | 1 | .
CCOc1ccc(-n2cc(C(=O)Nc3cccc(C)n3)c3cc(OC)c(OC)cc3c2=O)cc1 | i | -2 | i | 3 | i
O=C(NCC1CCCO1)C1c2ccccc2C(=O)N1C1CCCCCC1 (stereo unspecified) | i | 3 | i | -6 | i
CCOC(=O)c1cc2c(=O)n3ccccc3nc2n(CCCOC)c1=NC(C)=O | i | 0 | i | -3 | i
CCOc1ccc2nc(N3CCC(C(=O)N4CCN(C(=O)c5ccco5)CC4)CC3)sc2c1 | . | 6 | . | 2 | .
Cc1nn(C)c(C)c1S(=O)(=O)N(CC(=O)NCc1cccs1)c1ccc(C(C)C)cc1 | . | 4 | . | 3 | .
CCN(CC)S(=O)(=O)c1ccc(NC(=O)c2c(-c3ccccc3)noc2C)cc1 | . | -2 | . | -4 | .
O=C(CCn1c(=S)[nH]c2ccccc2c1=O)NCCCN1CCCC1=O | . | -1 | . | -3 | .
CCCCNC(=O)CCCCCNS(=O)(=O)c1ccc(OC)cc1 | . | -5 | . | -7 | .
CCOC(=O)CSc1nnc2n1C(C)(C)Cc1ccccc1-2 | i | -8 | i | 7 | i
CCCCN1C(=O)c2ccccc2C1C(=O)NC1CCCC1 (stereo unspecified) | . | 19 | . | 1 | .
O=C1OC(c2ccc(Br)cc2)=N/C1=C\N1CCCCC1 | . | 1 | . | -9 | .
N#Cc1nc(-c2ccccc2F)oc1NC1CCCCC1 | . | 11 | . | 3 | .
COc1cccc(C2NC(C)(C(=O)O)C3C(=O)N(C(C)C)C(=O)C23)c1O (stereo unspecified) | . | -3 | . | 4 | .
Nc1ncc(Br)cc1S(=O)(=O)NCCC(=O)N1CCN(c2ncccn2)CC1 | . | -1 | . | 1 | .
Cc1cc(C(=O)N2CCN(Cc3ccc4c(c3)OCO4)CC2)on1 | . | -9 | . | -1 | .
Cc1ccc(OCC(O)CN2C(=O)NC(C)(C)C2=O)cc1C (stereo unspecified) | i | -6 | i | -2 | i
CCCC(=O)N1c2ccccc2NC2=C(C(=O)CCC2)C1c1ccc(F)cc1 (stereo unspecified) | i | 1 | i | -2 | i
CCSc1nc2c(c(=O)n1Cc1ccccc1)SC(C)C2 (stereo unspecified) | . | -5 | . | -4 | .
COc1ccc(OCc2nc(C#N)c(N3CCN(c4ccc(OC)cc4)CC3)o2)cc1 | i | -2 | i | 0 | i
COc1ccc(NC(=O)C2CCCN(S(=O)(=O)c3cccc4nonc34)C2)c(OC)c1 (stereo unspecified) | . | 2 | . | 9 | .
CC1CC(=O)N(CC(=O)NCc2ccco2)c2ccccc2S1 (stereo unspecified) | . | 9 | . | 8 | .
N#CCCCCn1c(-c2cncs2)nc2ccccc21 | i | -2 | i | 0 | i
CCN(CC)c1ccc(NC(=O)CN2CCN(c3nc(C)cc(C)n3)CC2)cc1 | . | -4 | . | 7 | .
COC(=O)c1c(N)nc(C)n1-c1ccc(OC)cc1 | i | -1 | i | -5 | i
CCN(Cc1nc2cc(OC)c(OC)cc2c(=O)[nH]1)C(=O)c1ccc(S(=O)(=O)N(C)C)cc1 | i | 4 | i | -2 | i
Cc1oc(-c2cccc(Cl)c2)nc1CN1CCCC(C(=O)NCCCN2CCOCC2)C1 (stereo unspecified) | . | 2 | . | 2 | .
COCCOC(=O)c1[nH]c2c(c1C)C(=O)CC(c1ccco1)C2 (stereo unspecified) | i | 0 | i | 4 | i
Cc1ccc(-c2nc(C3CCCN(S(=O)(=O)c4ccc(C(F)(F)F)cc4)C3)no2)cc1 (stereo unspecified) | . | -2 | . | -4 | .
CCCCC(=O)NCCNc1nc2c(c(=O)n(C)c(=O)n2C)n1Cc1ccccc1 | i | -1 | i | 0 | i
CCN(CC)c1ccc(CNc2ccc(Br)cn2)cc1 | i | -5 | i | -1 | i
CCOC(=O)c1cccc(C(=O)OCC)n1 | . | 1 | . | -4 | .
O=C(O)C1CCCN1S(=O)(=O)c1ccc2ccccc2c1 (stereo unspecified) | i | 2 | i | -1 | i
CC(C)C(NC(=O)C1CCCCC1)C(=O)Nc1ccccn1 (stereo unspecified) | . | 2 | . | 4 | .
CCN(CCCNC(=O)COc1cc(=O)n(C)c2ccccc12)c1cccc(C)c1 | . | 0 | . | 0 | .
O=S(=O)(NCCO)c1cccc2cccnc12 | . | -6 | . | 4 | .
C=CCOc1ccc(/C(O)=C2/C(=O)C(=O)N(CCCn3ccnc3)C2c2cccs2)cc1 (stereo unspecified) | . | -4 | . | -5 | .
O=C(CCS(=O)(=O)c1cccc2nsnc12)N1CCN(Cc2ccc3c(c2)OCO3)CC1 | i | 0 | i | 8 | i
CN(C)c1ccc(NC(=O)c2cccc(N3C(=O)C4C5C=CC(C5)C4C3=O)c2)cc1 (stereo unspecified) | . | 2 | . | 2 | .

The list is partial. The share of hits here may be higher or lower than overall.
